From PubChem
SARS PLP yeast: qHTS of Yeast-based Assay for SARS-CoV PLP | AID 485353, 2010 | S. cerevisiae expressing SARS-CoV PLpro, growth rescue; control for the full effect not named in the record | Potency, µM (series often up to 32.9 µM), for the others: top-dose activity, positive = growth rescue | hit rate 0.19% among 330,000; further: 0% is about no effect; nearly all actives have a fitted effect of over 55% in size; growth read by luminescence after 48 h
Cruzain inh Det: qHTS Assay for Promiscuous and Specific Inhibitors of Cruzain (with detergent); Cruzipain (Trypanosoma cruzi), P25779; purified cruzain, Z-FR-AMC fluorescence, 0.01% Triton; Potency, µM, for the others: max response, negative = inhibition, hits mostly inhibitors; hit rate 0.43% among 200,000; active means well fitted curve in the direction sought with a large enough effect; inconclusive means small, poorly fitted or top-dose-only effect, or another doubt; inactive means no such curve, though single readings can be large; an effect the other way counts as inactive or inconclusive;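 further: plate controls were neutral wells for no effect and buffer without enzyme for full effect; nearly all actives have a fitted effect of over 40% in size; top concentration of the series not given in the record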
Target sequence (P25779 123-467 limits assumed): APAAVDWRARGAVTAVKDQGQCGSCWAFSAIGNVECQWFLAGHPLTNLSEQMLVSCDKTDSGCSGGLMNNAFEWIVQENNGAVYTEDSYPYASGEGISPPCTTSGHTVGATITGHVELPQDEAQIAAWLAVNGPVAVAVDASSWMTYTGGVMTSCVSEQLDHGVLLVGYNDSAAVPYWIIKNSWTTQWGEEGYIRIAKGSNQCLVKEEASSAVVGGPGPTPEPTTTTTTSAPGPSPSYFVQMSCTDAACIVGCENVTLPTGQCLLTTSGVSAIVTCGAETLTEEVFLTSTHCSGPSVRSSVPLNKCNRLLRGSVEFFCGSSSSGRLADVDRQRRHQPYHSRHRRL
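Z-FR-AMC hydrolysis (2 uM substrate) by cruzain (1.5 nM) monitored kinetically at ex 360/em 450 nm after 15 min room-temperature compound exposure; 0.01% Triton X-100, pH 5.5, 5 mM DTT.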
LASV entry inh: qHTS for Inhibitors of binding or entry into cells for Lassa Virus; Lassa virus pseudotype entry inhibition, cell reporter; control for the full effect not named in the record; Potency, µM (series often up to 37.9 µM), for the others: top-dose activity change, negative = inhibition, actives largely listed as inhibitors; hit rate 1.2% among 300,000; AID 540256, 2011; active means well fitted inhibition curve with a large enough effect; inconclusive means small, poorly fitted or top-dose-only effect, or effect the other way; inactive means flat fitted curve, though single readings scatter; tested in HEK293 cells; further: on the % scale 0 is the no-effect control and ±100 the full control effect; nearly all actives have a fitted effect of over 50% in size; luciferase read-out
NS1 function inh: qHTS Assay for Inhibitors of Influenza NS1 Protein Function | AID 2326, 2010 | Potency, µM (top dose mostly 46.1 µM), inactives show at the highest dose activity, positive = more growth | hit rate 0.4% among 270,000 | S. cerevisiae slowed by influenza A NS1, growth recovery by OD600; further: actives are rising curves; nearly all actives have a fitted effect of over 50% in size
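Read-out: OD600 growth recovery of NS1-expressing budding yeast. Cells grown overnight at 30C in -URA glucose medium, washed, resuspended and diluted 1:100 in 2% galactose assay medium, pH 6.0. Same strain lacking NS1 served as positive control.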
RE007 growth inh: qHTS Assay for Inhibitors of the HIV-1 protein Vpr | S. pombe RE007 Vpr strain, BacTiter-Glo ATP luminescence, 24 h; control for the full effect not named in the record | AID 651644, 2012 | hit rate 0.21% among 360,000 | Potency, µM (doses to about 92.2 µM), without a hit: top-dose activity change, negative = less growth; active = well fitted falling curve with a large enough effect; inconclusive = small, poorly fitted or top-dose-only effect; inactive = no such curve, though single readings can be large or run the other way;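 further: on the % scale 0 is the no-effect control and ±100 the full control effect; nearly all actives have a fitted effect of over 50% in size; the assay follows cell death caused by Vpr and the record does not say whether a fall means rescue or toxicity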
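Fission yeast strain RE007, carrying one chromosomally integrated HIV-1 vpr copy, was seeded at OD 0.01 in PMG+AL medium with 23 nL pinned compound. After 24 h at 30 °C and 99% humidity, viability was read by BacTiter-Glo luminescence.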
Marburg entry inh: qHTS for inhibitors of binding or entry into cells for Marburg Virus; Marburg virus pseudotyped entry inhibition, cell reporter; control for the full effect not named in the record; about a third of the inactives were read at about 46 µM; Potency, µM (series often up to 37.8 µM), for the others: at the top dose activity change, negative = inhibition, hits mostly inhibitors; hit rate 1.8% among 300,000; active = well fitted inhibition curve with a large enough effect; inconclusive = small, poorly fitted or top-dose-only effect, or effect the other way; inactive = flat fitted curve, though single readings scatter; tested in HEK293 cells; about a fifth of its hits are not listed in these tables; further: on the % scale 0 is the no-effect control and ±100 the full control effect; luciferase read-out
Cruzain noTriton: qHTS Assay for Promiscuous and Specific Inhibitors of Cruzain (without detergent) | Cruzipain (Trypanosoma cruzi), P25779 | purified cruzain, Z-FR-AMC fluorescence, no detergent | hit rate 2.3% among 200,000 | Potency, µM, for inactives: max response, negative = inhibition, most hits filed as inhibitors; active means well fitted curve in the direction sought with a large enough effect; inconclusive means small, poorly fitted or top-dose-only effect, or another doubt; inactive means no such curve, though single readings can be large; an effect the other way counts as inactive or inconclusive;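 further: plate controls were enzyme without inhibitor for no effect and buffer without enzyme for full effect; nearly all actives have a fitted effect of over 40% in size; top concentration of the series not given in the record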
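Purified cruzain at 1.5 nM, pre-incubated 15 min with compound at room temperature in 100 mM sodium acetate pH 5.5, 5 mM DTT, 0.00005% Triton X-100. Reaction started with 2 uM Z-FR-AMC; AMC fluorescence increase over 60 s gives rate.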
2A StopGo: High Throughput Screening for Foot and Mouth Disease Virus Antivirals; human cells with a luciferase reporter of 2A StopGo recoding; control for the full effect not named in the record; Potency, µM (titrated, usually from 57.9 µM), without a hit: top-dose signal change, negative = less light; hit rate 1.2% among 410,000; AID 1159524, 2015; active = well fitted falling curve with a large enough effect; inconclusive = small, poorly fitted or top-dose-only effect; inactive = no such curve, though single readings can be large or run the other way; tested in HEK293T cells; further: on the % scale 0 is the no-effect control and ±100 the full control effect; nearly all actives have a fitted effect of over 45% in size; luciferase light after 4 h
Active calls of the source: *; ? = inconclusive; . = not tested or not shown; & = joins results of further samples; [ ] = another dose, or the depositor's remark. Unless noted, the call rests on the fitted dose curve; in most records, active means well fitted rising curve with a large enough effect; inconclusive means small, poorly fitted or top-dose-only effect; inactive means no such curve, though single readings can be large or run the other way. Potency means the concentration at half of the fitted maximal effect.

molecule	Marburg entry inh	NS1 function inh	Cruzain noTriton	LASV entry inh	RE007 growth inh	2A StopGo	Cruzain inh Det	SARS PLP yeast
N#CCSc1ccc2nc(-c3ccccc3)cn2n1	.	-1%	.	.	-3%	45%[activator]	.	-23%
COC(=O)c1ccc(/C=C2\SC(=S)N(CCCC(=O)N3CCOCC3)C2=O)cc1	?	.	.	19%[46.1 µM]	9%	16%	.	.
c1ccc(Nc2nc3ccccc3n3nnnc23)cc1	.	0%	.	.	-3%	40%[activator]	.	-1%
O=C(CSc1ncn(-c2ccccc2)n1)Nc1nncs1	.	-6%	.	.	2%	-1%	.	1%
O=C(Oc1ccc(C(=S)N2CCCCC2)cc1)c1ccccc1F	.	3%	.	.	-12%	2%	.	0%
Cn1cccc1Cc1nnc(SCC(=O)N2CCCc3ccccc32)n1-c1ccc(F)cc1	-11%&-11%	-21%	?	-24%	-14%	-17%	-2.4%	-3%
CCn1cc(C(=O)NCCc2ccc(C)cc2)c(=O)c2cc(S(=O)(=O)N(C)C)ccc21	9%[46.1 µM]	0%	-7%	-2%[46.1 µM]	-7%	-21%&6%	-3.2%	1%
Cc1cc(C)c2oc(C(=O)NC3CCS(=O)(=O)C3)cc(=O)c2c1 (stereo not given)	.	-7%	.	.	3%	6%	.	-1%
CCCCOc1ccccc1NC(=O)Cn1c(-c2cncs2)nc2ccccc21	-3%[46.1 µM]	.	23%	-2%[46.1 µM]	.	?	-9.2%	.
Cn1c(SCC(=O)c2ccccc2)nnc1-c1cccs1	.	?	.	.	0%	71%[activator]	.	-2%
O=C(OCCOc1cccc(Cl)c1)c1ccc2ncsc2c1	-3%[46.1 µM]	-35%	.	.	-30%	27%	.	-4%
CCc1ccc(S(=O)(=O)N2CCN(C(=O)C3CCN(C(C)=O)CC3)CC2)cc1	13%	-6%	.	-2%	3%	0%	.	-3%

Further structures
molecule	Marburg entry inh	NS1 function inh	Cruzain noTriton	LASV entry inh	RE007 growth inh	2A StopGo	Cruzain inh Det	SARS PLP yeast
O=C(NCCCNC(=O)c1ccco1)c1ccc(F)cc1	?	12%	.	0%[46.1 µM]	-6%	31%[activator]	.	0%
COc1cc(C(c2c(C)[nH][nH]c2=O)c2c(C)[nH][nH]c2=O)ccc1OC(=O)c1cccc([N+](=O)[O-])c1	-4%	?	-1%	-12%	-16%	-7%	-5.9%	1%
COC(=O)CCC(=O)NC(=S)Nc1cc(Cl)ccc1Cl	17%	-148%	1%	13%	11%	.	-2.0%	-46%
CC(NC(=O)Cn1cccc1C(=O)c1ccccc1)c1ccc2c(c1)OCCO2 (stereo not given)	4%	.	.	-11%	6%	13%	.	-1%
CC(C)CN(CC(C)C)S(=O)(=O)N1CCC(C(=O)NCc2cccs2)CC1	12%	-2%	6%	-10%	1%	3%	0.8%	3%
O=C(Cc1ccccc1)Nc1ccc(NC(=O)c2cccs2)cc1	-1%	.	.	0%	12%	12%	.	-6%
Cc1ccc2c(Cn3ccnc3)cc(=O)oc2c1C	.	0%	.	.	3%	29%	.	1%
Cc1nnsc1-c1onc(C)c1C(=O)O/N=C/c1ccc(Cl)cc1	.	-2%	.	.	26%	-1%	.	1%
CC1=NC(C)(C)Cc2ccccc21	17%	-10%	3%	?	15%	-4%	-0.2%	8%
Cc1onc(-c2ccccc2)c1C(=O)Nc1nc(-c2cc(F)ccc2F)cs1	5%	-7%	-20%	-2%	-6%	38%[activator]	2.1%	-6%
O=C(Nc1ncc2c(n1)CC(c1ccc(Cl)cc1)CC2=O)c1ccco1 (stereo not given)	10%[46.1 µM]	-12%	.	.	-6%	0%	.	-4%
CC(C)(C)c1nnc(NC(=O)CS(=O)(=O)Cc2ccccc2)s1	24%[46.1 µM]	-4%	.	-3%	3%	-20%	.	-1%

Continuation:
molecule	Marburg entry inh	NS1 function inh	Cruzain noTriton	LASV entry inh	RE007 growth inh	2A StopGo	Cruzain inh Det	SARS PLP yeast
O=C(NC1CCCCC1)[C@H](CSCc1ccccc1)N1Cc2ccccc2C1=O	-14%	2%	-2%	-3%	-4%	0%	-3.8%	-1%
CC(C)OC(=O)CN1CCN(C2c3ccccc3-c3ccccc32)CC1	?	-34%	4%	0%	-14%	-17%	-4.2%	-3%
CC1CCCN(c2nc3ccccc3nc2C(C#N)S(=O)(=O)c2ccccc2)C1 (stereo not given)	-4%	21%	-8%	13%	1%	?	-7.7%	-18%
O=S(=O)(c1cccc2cccnc12)N1CCN(c2ccccc2)CC1	12%	-58%	0%	-8%	-3%	-3%	0.2%	?
CC(=O)Nc1ccc(S(=O)(=O)NCC(=O)NC(C)c2ccc(S(N)(=O)=O)cc2)cc1 (stereo not given)	?	-1%	.	-10%	-13%	8%	.	0%
C/C(=N\NC(=O)c1cccs1)C(C)(C)C	?	5%	3%	?	-24%	32%[activator]	0.7%	7%
O=C1C(c2ccc(F)cc2)N(Cc2ccc3c(c2)OCO3)C(=O)CN1C1CCCCCC1 (stereo not given)	?	-1%	-3%	?	-9%	6%	3.9%	-2%
CCOc1ccccc1NC(=O)C(C)Sc1nc2c(c(=O)[nH]1)CCCC2 (stereo not given)	8%[46.1 µM]	.	19%	12%[46.1 µM]	.	7%	-3.0%	.
COc1ccc(CCNC(=O)Cc2ccc(C)cc2)cc1OC	20%	0%	.	9%	41%	-13%	.	-4%
O=[N+]([O-])c1ccccc1OCCOc1ccccc1[N+](=O)[O-]	?	4%	.	12%	1%	0%	.	1%
NC(N)=NC(=S)Nc1ccc(Cl)cc1	?	-4%	.	?	12%	35%[activator]	.	-4%
CCOc1ccccc1C(=O)OCC(=O)NCCNC(=O)COC(=O)c1ccccc1OCC	10%	-2%	.	-3%	-2%	1%	.	1%

(further entries)
molecule	Marburg entry inh	NS1 function inh	Cruzain noTriton	LASV entry inh	RE007 growth inh	2A StopGo	Cruzain inh Det	SARS PLP yeast
CCOC(=O)c1c(NC(=O)Cc2coc3ccc(CC)cc23)sc2c1CCC2	8%[46.1 µM]	.	?	5%[46.1 µM]	.	-17%	-2.9%	.
O=C(NCC1CCCO1)Nc1ccc2c(c1)OCO2 (stereo not given)	.	5%	.	.	2%	40%[activator]	.	-2%
FC(F)(F)c1nc2cc3nc4ccccc4[nH]c3cc2n1	5%	-77%	.	0%	-10%	17%	.	-2%
O=S(=O)(/C=C/c1ccccc1)N1CCN(c2ccc(F)cc2)CC1	-35%	-67%	4%	1%	-2%	-20%	-9.1%	6%
O=C(CN1CCCCCC1)N1c2ccccc2Sc2ccccc21	?	2%	.	1%	-19%	-15%	.	0%
COc1cc2c(cc1OC)C(c1ccncc1)CC(=O)N2 (stereo not given)	9%	2%	4%	11%	0%	-8%	4.3%	8%
O=S(=O)(NC1CCCCC1N1CCN(c2cccc(Cl)c2)CC1)c1ccccc1 (stereo not given)	.	-17%	.	.	0%	-23%	.	-14%
CC(C)CC(COCc1cccc(Cl)c1)N1CCN(C(=O)c2cccc(C(F)(F)F)c2)CCC1=O (stereo not given)	?	-30%	?	?	16%	?	-7.8%	0%
COc1cccc(NC(=O)c2cc3ccccc3cc2OC)c1	.	-3%	.	.	-18%	74%[activator]	.	-8%
O=S1(=O)CCN2C=C(Br)C=C(Br)C2=N1	-1%	-1%	2%	0%	-3%	-9%	-3.2%	?
O=C1C2ON(c3ccccc3)C(c3ccncc3)C2C(=O)N1c1ccc(Br)cc1 (stereo not given)	-21%	5%	29%	2%	-3%	23%	-0.1%	6%
COc1ccccc1N1CCN(c2ccc([N+](=O)[O-])cn2)CC1	-9%[46.1 µM]	-21%	.	-1%[46.1 µM]	-2%	-19%	.	-3%

(continued)
molecule	Marburg entry inh	NS1 function inh	Cruzain noTriton	LASV entry inh	RE007 growth inh	2A StopGo	Cruzain inh Det	SARS PLP yeast
COc1ccc(NC(=O)c2cc3c(COC(C)=O)cnc(C)c3oc2=Nc2cccc(C(=O)O)c2)c(OC)c1	.	-2%	.	.	5%	-12%	.	0%
N#CC(C#N)=C1SC(=Nc2ccccc2)C(=Nc2ccccc2)N1c1ccccc1	?	.	.	?	15%	-21%	.	.
CCCCOP(=O)(OCCCC)C(O)c1ccc(F)cc1 (stereo not given)	7%	10%	.	?	4%	79%[activator]	.	2%
Cc1noc(NC(=O)c2ccccc2C(F)(F)F)c1C#N	?	1%	.	10%	-14%	3%	.	1%
Cc1ccc(NC(/C=C/N(C)C)=C/C(=O)C(F)(F)F)c(C)c1	?	0%	.	-9%[46.1 µM]	3%	-15%	.	-1%
COc1ccc(C(CNC(=O)c2oc3cc(C)c(Cl)cc3c2C)N2CCCCC2)cc1 (stereo not given)	3%&3%[46.1 µM]	19%	-1%	9%[46.1 µM]	1%	-25%&-9%	1.9%	6%
Cc1cc(C)c2nc(-c3ccco3)cc(C(=O)O)c2c1	?	7%	.	-4%[46.1 µM]	38%	-20%	.	0%
COCC1CCN(C(=O)C2CCC(=O)N(C3CCCC3)C2)CC1 (stereo not given)	.	10%	.	.	0%	11%	.	15%
CC1CCN(C(=O)CSc2nnc3c(n2)[nH]c2ccccc23)CC1	-12%[46.1 µM]	1%	.	-11%	-16%	?	.	1%
O=C1N=C(N2CCOCC2)S/C1=C/c1ccc(-c2ccc(F)cc2)o1	2.5µM*	1%	.	?	7%	-16%	.	-1%
CCOc1ccc(C(c2c(C)[nH][nH]c2=O)c2c(C)[nH][nH]c2=O)cc1OCC	-20%	2%	-6%	1%	.	?	-1.3%	-3%
Cc1cccc(NC(=O)c2ccc(N3CCOCC3)c([N+](=O)[O-])c2)n1	-20%	1%	.	1%	-8%	1%	.	-1%
CCCn1c(=O)c2sccc2n2c(CCCC(=O)Nc3ccccc3F)nnc12	.	.	7%	26%[46.1 µM]	.	-7%	0.2%	.
